Assay outcomes: PubChem, National Center for Advancing Translational Sciences (NCATS)
RE007 growth inh – less growth of the S. pombe RE007 Vpr strain; S. pombe RE007 Vpr strain, BacTiter-Glo ATP luminescence, 24 h; control for the full effect not named in the record; Potency, µM (top dose mostly 92.2 µM), for inactives: top-dose activity change, negative = less growth; actives 0.21% (n = 360,000); AID 651644; active = well fitted falling curve with a large enough effect; inconclusive = small, poorly fitted or top-dose-only effect; inactive = no such curve, though single readings can be large or run the other way;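 note: % is set by controls: 0 for no effect and ±100 for the full control effect; nearly all actives have a fitted effect of over 50% in size; the assay follows cell death caused by Vpr and the record does not say whether a fall means rescue or toxicity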
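Fission yeast RE007 carrying one integrated HIV-1 vpr copy, seeded at OD 0.01 in PMG+AL medium with 23 nL pinned compound. Grown 24 h at 30 degrees; viability read by BacTiter-Glo luminescence after 5 min.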
Marburg entry inh – blocks Marburg virus binding to or entry into cells | actives 1.8% (n = 300,000) | Marburg virus pseudotyped entry inhibition, cell reporter; control for the full effect not named in the record; about a third of the inactives were read at about 46 µM | Potency, µM (series often up to 37.8 µM), for inactives: at the top dose activity change, negative = inhibition, usual class: inhibitors; active = well fitted inhibition curve with a large enough effect; inconclusive = small, poorly fitted or top-dose-only effect, or effect the other way; inactive = flat fitted curve, though single readings scatter; tested in HEK293 cells; about a fifth of its hits are not listed in these tables; note: % is set by controls: 0 for no effect and ±100 for the full control effect; luciferase read-out
NS1 function inh – inhibitors of influenza NS1 protein function. S. cerevisiae slowed by influenza A NS1, growth recovery by OD600. Potency, µM (series often up to 46.1 µM), for inactives: at the top dose activity, positive = more growth. actives 0.4% (n = 270,000). AID 2326; active means well fitted rising curve with a large enough effect; inconclusive means small, poorly fitted or top-dose-only effect; inactive means no such curve, though single readings can be large or run the other way; note: nearly all actives have a fitted effect of over 50% in size
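Read-out: OD600 growth recovery of NS1-expressing budding yeast. Cells grown overnight at 30C in -URA glucose medium, washed, resuspended and diluted 1:100 in 2% galactose assay medium, pH 6.0. Same strain lacking NS1 served as positive control.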
SARS PLpro yeast – SARS-CoV PLP inhibition in yeast; S. cerevisiae expressing SARS-CoV PLpro, growth rescue; control for the full effect not named in the record; Potency, µM (doses to about 32.9 µM), for inactives: at the top dose activity, positive = growth rescue; actives 0.19% (n = 330,000); active means well fitted rising curve with a large enough effect; inconclusive means small, poorly fitted or top-dose-only effect; inactive means no such curve, though single readings can be large or run the other way; note: 0% is about no effect; nearly all actives have a fitted effect of over 55% in size; growth read by luminescence after 48 h
Lassa entry inh – blocks Lassa virus binding to or entry into cells | Lassa virus pseudotype entry inhibition, cell reporter; control for the full effect not named in the record | Potency, µM (top dose mostly 37.9 µM), without a hit: at the top dose activity change, negative = inhibition, most hits filed as inhibitors | actives 1.2% (n = 300,000); active means well fitted inhibition curve with a large enough effect; inconclusive means small, poorly fitted or top-dose-only effect, or effect the other way; inactive means flat fitted curve, though single readings scatter; tested in HEK293 cells; note: % is set by controls: 0 for no effect and ±100 for the full control effect; nearly all actives have a fitted effect of over 50% in size; luciferase read-out
Cruzain inh noDet – inhibitors of Trypanosoma cruzi cruzain without detergent. P25779. purified cruzain, Z-FR-AMC fluorescence, no detergent. Potency, µM, without a hit: max response, negative = inhibition, hits mostly inhibitors. actives 2.3% (n = 200,000). AID 1476;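 note: plate controls were enzyme without inhibitor for no effect and buffer without enzyme for full effect; nearly all actives have a fitted effect of over 40% in size; top concentration of the series not given in the record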
Target sequence (P25779 123-467 limits assumed): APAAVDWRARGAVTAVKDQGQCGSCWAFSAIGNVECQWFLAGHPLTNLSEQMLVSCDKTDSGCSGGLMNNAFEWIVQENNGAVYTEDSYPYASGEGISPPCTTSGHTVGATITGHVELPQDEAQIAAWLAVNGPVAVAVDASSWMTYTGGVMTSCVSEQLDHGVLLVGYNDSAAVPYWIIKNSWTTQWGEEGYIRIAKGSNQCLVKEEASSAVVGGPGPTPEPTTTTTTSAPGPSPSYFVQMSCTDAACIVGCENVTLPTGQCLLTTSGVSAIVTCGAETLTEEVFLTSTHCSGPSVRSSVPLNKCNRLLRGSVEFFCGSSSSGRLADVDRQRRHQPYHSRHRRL
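Purified cruzain at 1.5 nM, pre-incubated 15 min with compound at room temperature in 100 mM sodium acetate pH 5.5, 5 mM DTT, 0.00005% Triton X-100. Reaction started with 2 uM Z-FR-AMC; AMC fluorescence increase over 60 s gives rate.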
Cruzain inh Det – inhibitors of Trypanosoma cruzi cruzain with detergent; P25779; purified cruzain, Z-FR-AMC fluorescence, 0.01% Triton; actives 0.43% (n = 200,000); Potency, µM, for the others: max response, negative = inhibition, hits mostly inhibitors;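 note: plate controls were neutral wells for no effect and buffer without enzyme for full effect; nearly all actives have a fitted effect of over 40% in size; top concentration of the series not given in the record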
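Cysteine protease activity tested under reducing, mildly acidic conditions (100 mM sodium acetate pH 5.5, 5 mM DTT) plus 0.01% Triton X-100. Cruzain 1.5 nM; substrate Z-FR-AMC 2 uM; 15 min compound preincubation at room temperature.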
StopGo reporter – FMDV 2A StopGo reporter, luciferase signal; human cells with a luciferase reporter of 2A StopGo recoding; control for the full effect not named in the record; Potency, µM (titrated, usually from 57.9 µM), for inactives: at the top dose signal change, negative = less light; actives 1.2% (n = 410,000); AID 1159524; active = well fitted falling curve with a large enough effect; inconclusive = small, poorly fitted or top-dose-only effect; inactive = no such curve, though single readings can be large or run the other way; tested in HEK293T cells; note: % is set by controls: 0 for no effect and ±100 for the full control effect; nearly all actives have a fitted effect of over 45% in size; luciferase light after 4 h
* = called active by the depositor; ? = inconclusive; . = no result given; & = joins results of further samples; [ ] = another dose, or the depositor's remark. Unless noted, calls come from the whole dose curve; as a rule, active = well fitted curve in the direction sought with a large enough effect; inconclusive = small, poorly fitted or top-dose-only effect, or another doubt; inactive = no such curve, though single readings can be large; an effect the other way counts as inactive or inconclusive. Potency is the fitted concentration of half-maximal effect. An unsorted share of the library (roughly 4.7% active in at least one column).

SMILES	RE007 growth inh	Marburg entry inh	NS1 function inh	SARS PLpro yeast	Lassa entry inh	Cruzain inh noDet	Cruzain inh Det	StopGo reporter
Cc1cc(NC(=O)c2cc(-c3ccccc3)on2)n(-c2ccccc2)n1	14%	2%	-15%	6%	2%	7%	1.8%	.
Cc1ccc(CNC(=O)C2CCN(C(=O)c3ccc(-n4ccc5ccccc54)s3)CC2)cc1	.	.	.	.	-16%[46.1 µM]	7%	-3.3%	0%
Cc1[nH]c(=O)[nH]c(=O)c1S(=O)(=O)Nc1ccc(F)c(Cl)c1	-3%	.	-1%	1%	.	.	.	4%
NCC12CC3CC(CC(O)(C3)C1)C2	7%	3%	1%	2%	0%	-5%	8.2%	.
CC(=O)Nc1ccc(S(=O)(=O)N2CCCC2C(=O)O)cc1 (configuration not stated)	0%	23%&23%	0%	-8%	?	2%	2.5%	.
CCN1C(=O)c2ccc(C(=O)Nc3cccc(C(=O)O)c3)cc2C1=O	?	16%	0%	-3%	-7%	.	.	14µM*
Cc1ccc(S(=O)(=O)/N=C2\C=C(NS(=O)(=O)c3ccccc3)C(=O)c3ccccc32)cc1	-8%	-1%[46.1 µM]	.	.	1%	.	.	20%
CCOc1ccccc1N1CC(c2nc3ccccc3n2CCCOc2ccc(OC)cc2)CC1=O (configuration not stated)	.	?	.	.	?	?	-8.7%	-20%
CCOC(=O)Cc1cc(=O)n2[nH]c(C)c(-c3ccccc3)c2n1	11%	-14%	5%	-3%	-6%	-13%	1.5%	14%
Cc1ccc2onc(CC(=O)Nc3cc(F)ccc3F)c2c1	.	.	.	.	2%[46.1 µM]	4%	-0.3%	16%
Cc1cc(=O)n2ncnc2n1COCCO	-1%	-4%	-3%	10%	?	1%	2.4%	0%
COc1cccc(C(=O)OCCCN(C)C)c1	-4%	-1%	0%	5%	-3%	-8%	-2.7%	-2%
CCS(=O)(=O)N1N=C(c2cccc(NS(C)(=O)=O)c2)CC1c1ccc(C)cc1 (configuration not stated)	6%	-1%[46.1 µM]	.	1%	-7%	.	.	46%[activator]
CN(C)CCCNC(=O)C1(O)c2cc(Br)ccc2NC(=O)N1c1ccc(Cl)cc1 (configuration not stated)	6%	0%[46.1 µM]	6%	0%	0%[46.1 µM]	.	.	-3%
CC(NCc1ccc([N+](=O)[O-])cc1)C1COc2ccccc2O1 (configuration not stated)	4%	-29%[46.1 µM]	8%	-3%	13%[46.1 µM]	.	.	-16%
O=c1sc2ccccc2n1CCOc1ccccc1	-18%	5%	-14%	-7%	?	3%	-2.8%	38%[activator]
CC(C)(C)NC(=O)C(OC(=O)Cn1nnc(-c2ccc(F)cc2)n1)c1ccncc1 (configuration not stated)	10%	20%	-17%	14%	-7%	-2%	-1.7%	.
O=C(c1cc(Cl)ccc1Cl)N1CCc2ccccc21	-11%	?	0%	-6%	-1%[46.1 µM]	.	.	-13%
CCC(C)Sc1nc2ccccc2n1CC(=O)O (configuration not stated)	5%	-20%	-5%	7%	1%	-11%	4.2%	2%
COCCN(C(=O)Cc1cccs1)C(C(=O)NCc1ccc(OC)cc1)c1ccccc1 (configuration not stated)	5%	?	-5%	3%	1%	9%	-0.6%	.
O=C(Cn1cnc2ccccc2c1=O)Nc1ccc2c(c1)OCCO2	-4%	?	-9%	-2%	0%	-20%	-0.1%	26%
Cc1cccc(-n2cnc3cc(C(=O)NCc4ccccc4Cl)ccc32)c1	.	.	.	.	?	-1%	0.7%	15%
O=C1CC(c2nnc(Cc3ccccc3Cl)o2)CN1c1ccccc1 (configuration not stated)	.	3%[46.1 µM]	.	.	3%[46.1 µM]	-4%	-1.7%	-4%
CCOC(=O)C(CCCOc1ccc(C)cc1)C(=O)OCC	9%	-2%	-54%	0%	-13%	4%	-2.6%	?
CC(=O)c1ccc(C(=O)N2CCC(CO)(Cc3cccc(C(F)(F)F)c3)CC2)cc1	-1%	?	4%	-1%	?	.	.	-30%
CC1CCCCC1NC(=O)c1cc2c(s1)CS(=O)(=O)C2 (configuration not stated)	9%	15%	1%	2%	15%	6%	1.5%	4%
CC(CN(C)Cc1ccccc1)OC(=O)c1ccccc1F (configuration not stated)	18%	-1%	-3%	14%	0%	7%	1.9%	-12%
Cc1cccc(NC(=O)CSc2nnc(CCCCCNC(=O)OC(C)(C)C)o2)c1C	12%	?	-5%	-1%	?	?	4.0%	?
O=C(NN=C1c2ccccc2-c2ccccc21)c1ccccn1	4%	15%	-22%	-3%	-15%[14.3 µM]	?	-8.0%	28%
CC1CCCC(NC(=O)COC(=O)c2ccc3ccccc3n2)C1C (configuration not stated)	11%[3.69 µM]	-5%	1%	-3%	0%	-3%	-3.0%	-9%
COC(=O)C(F)(F)Sc1c(C)[nH]c2ccccc12	4%	9%	-88%	-41%	12%	-6%	-10%	.
Cc1cccc(/C=N/NC(=O)Cn2nc(C)cc2C)n1	-3%	5%	6%	3%	4%	3%	-2.4%	-7%
CCc1nccn1S(=O)(=O)c1cc(Br)ccc1OC	1%	0%	-8%	-4%	2%	6%	0.6%	44%[activator]
c1ccc(COc2ccc(OCCCNC3CCCC3)cc2)cc1	1%	?	-1%	-1%	-5%	-7%	3.4%	8%
NC(=O)C1CCN(Cc2ccc(OCc3ccccc3)cc2)CC1	4%	-30%	-20%	0%	-16%	.	.	30%[activator]
COc1ccc(-c2cc(=O)oc3cc(OCC(=O)Nc4ccc(CCO)cc4)ccc23)cc1	5%	?	-3%	-1%	-6%[46.1 µM]	.	.	?
COc1ccc(-n2nc(C(=O)Nc3nc4ccc(OC)cc4s3)c3ccccc3c2=O)cc1	19%	-2%	9%	-2%	13%	-4%	-3.7%	-9%
COC(=O)c1ccccc1NC(=O)Cn1c(=O)n(CCCCC(=O)NCc2ccc3c(c2)OCO3)c(=O)c2ccccc21	.	-1%[46.1 µM]	.	.	-10%[46.1 µM]	-8%	-3.2%	-15%
O=C(Cn1nc(Cc2cccnc2)c2ccccc2c1=O)Nc1ccccc1F	1%	1%[46.1 µM]	27%	2%	7%	.	.	-6%
N#CC1=C(N)C(C#N)(C#N)C2(C(=O)Nc3ccccc32)C2CCCC=C12 (configuration not stated)	5%	-21%	13%	-5%	?	17%	-5.2%	.
COc1cccc(OC)c1OCCNC[C@@H]1COc2ccccc2O1	.	-22%&-22%	.	.	.	2%	1.7%	-11%
O=C(NC1(C(F)(F)F)C(=O)Nc2c1c(=O)[nH]c(=O)n2Cc1ccccc1)c1ccc(Cl)cc1Cl (configuration not stated)	15%	9%	23%	-3%	12%	-15%	3.9%	12%
CCOC(=O)c1sc(/N=C/N(C)C)nc1C	12%	24%	19%	20%	-5%	0%	-6.7%	-6%
CC1=C(C(=O)O)N2C(=O)C(NC(=O)c3c(F)cccc3F)C2SC1 (configuration not stated)	19%	12%	.	1%	14%	.	.	-2%
COc1ccc(Nc2ncnc3scc(-c4ccc(F)cc4)c23)cc1	.	.	.	.	-18%[46.1 µM]	-15%	-5.2%	?
O=C1C=C2C=C[C@H]3C[C@]2(O1)[C@@H]1CCCCN13	-7%	?	7%	-4%	?	2%	2.4%	-19%
Cn1c2c(c3ccccc31)CCN(CCCCN1CCN(c3ccccc3)CC1)C2=O	14%	?	.	.	-1%[46.1 µM]	.	.	0%
CC(C(=O)Nc1ccc(C(F)(F)F)cc1)N(C)CC(=O)N1CCN(Cc2ccccc2)CC1 (configuration not stated)	2%	?	.	-3%	-30%	.	.	0%
N#CCCCSc1nnc(Cc2ccc3c(c2)OCO3)o1	13%	?	3%	11%	-3%	-16%	1.1%	-9%
N#Cc1cccc(C#N)c1Oc1ccc(S(=O)(=O)Nc2ccccc2)cc1	-14%	?	-5%	-2%	-19%	.	.	3%
COc1ccc(NC(=S)Nc2cnc3ccccc3c2)c(OC)c1	-4%	.	2%	0%	.	.	.	1%
Cc1cc(C)n(CCCNC(=O)CCNS(=O)(=O)c2ccccc2C(F)(F)F)n1	4%	17%	-3%	-2%	17%	.	.	0%
O=C(NC(=S)N1CCN(c2ccc(F)cc2)CC1)c1cccs1	-30%	?	-6%	-2%	-5%	.	.	-9%
Cc1cc(NC(=O)CSc2nnc3c4c(C)c(C)sc4ncn23)no1	5%	-19%	-10%	-3%	?	?	3.1%	.
Cc1nn(Cc2ccc(Cl)cc2)c(C)c1NC(=O)C1CC=CCC1C(=O)O (configuration not stated)	26%	-10%	5%	1%	3%	-6%	8.3%	-19%
Cc1ccc2[nH]c(C)c(CCNC(=O)NC3CCCCC3)c2c1	15%	?	.	2%	?	.	.	-9%
O=C(c1cc(-c2ccc(Br)cc2)on1)N1CCOCC1	2%	?	14%	-1%	2.5µM*	.	.	21%
O=C(NCc1cccnc1)C1c2ccccc2C(=O)N1C1CCCCCCC1 (configuration not stated)	-13%	3%	-7%	-3%	8%	5%	5.9%	18%
COc1ccccc1Nc1nn2c(=O)c3ccc(C(=O)NCc4cccs4)cc3nc2s1	.	.	.	.	?	18%	3.9%	?
Cc1cc(C)nc(SCNC(=O)c2ccccc2)n1	0%	-5%	4%	28%	22%[14.3 µM]	-3%	-0.2%	-16%

Next section.
SMILES	RE007 growth inh	Marburg entry inh	NS1 function inh	SARS PLpro yeast	Lassa entry inh	Cruzain inh noDet	Cruzain inh Det	StopGo reporter
Cc1cc(C(=O)O)c(CSc2ncn[nH]2)o1	1%	27%&27%	-5%	18%	10%	-7%	-2.0%	-26%
COc1ccc(CN(CCCN2CCOCC2)C(=O)Nc2cccc(Cl)c2)cc1OC	-2%	?	-13%	-7%	-13%	1%	-0.2%	0%
O=C(Nc1ccc(NC(=O)C23CC4CC(CC(C4)C2)C3)cn1)c1ccco1	-8%	?	-10%	-6%	?	7%	3.3%	50%[activator]
Cc1ccc(NC(=O)CSc2ncnc3c2sc2ccccc23)cc1C	.	.	.	.	9%[46.1 µM]	-2%	3.7%	-26%
